# Source: PubChem (several laboratories)
# eIF4H FP inh – human eIF4H binding inhibitors, primary screen, translation initiation inhibitor project, biochemical, uHTS, fluorescence polarization. inhibition, % at 35 µM. eIF4H fluorescence polarization binding assay. Eukaryotic translation initiation factor 4H (Homo sapiens), Q15056. 290,000 compounds, 0.94% hits;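 active = 50% or more with normal probe brightness, or confirmed in later tests; about a fifth of its hits are not listed in these tables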;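 note: calls also rest on retests at 20 µM and on dose response follow-up; 0% = protein and probe with vehicle and 100% = probe without protein; strong numbers were not always called active; many hits fall short of the cut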
# Rce1 inh – yeast Rce1p protease inhibitors, primary screen, biochemical, fluorescence, cell-free homogeneous; CAAX prenyl protease 2 (Saccharomyces cerevisiae (strain ATCC 204508 / S288c)), Q03530; yeast membranes, quenched prenylated peptide cleavage fluorescence; calls only; 290,000 compounds, 0.27% hits; AID 2563, 2010;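 active = fall in fluorescence gain of 50% or more versus controls, with final raw signal at or below 3038400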;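 note: plate controls were neutral control wells for no effect and wells lacking membranes for full effect; tested at 10 µM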
# Target sequence (Q03530 whole entry, looked up): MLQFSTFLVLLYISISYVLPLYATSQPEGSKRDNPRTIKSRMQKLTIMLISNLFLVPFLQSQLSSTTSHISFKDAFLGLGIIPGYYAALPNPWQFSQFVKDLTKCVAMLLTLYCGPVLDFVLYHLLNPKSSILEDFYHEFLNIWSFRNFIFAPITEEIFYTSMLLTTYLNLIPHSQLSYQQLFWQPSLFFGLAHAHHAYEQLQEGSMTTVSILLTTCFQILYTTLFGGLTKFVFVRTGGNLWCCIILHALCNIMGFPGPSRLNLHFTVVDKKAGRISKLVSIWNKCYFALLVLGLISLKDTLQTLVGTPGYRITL
# HIV Env fusion – inhibitors of HIV-1 Env-driven cell-cell fusion, primary screen, HeLa-JRFL effector, CEM21 target cells, luciferase. AID 651610, 2012. inhibition, % at 12.3 µM. 360,000 compounds, 1.1% hits;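 active = mean replicate inhibition score of at least 50 and every replicate individually at or above 50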;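 note: 0% = plate neutral controls and 100% = maraviroc near 300 nM; one replicate is shown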
# MT1-MMP act inh – blockers of MT1-MMP proenzyme processing, primary screen, HT1080 RFP-PRO-GFP cells, GFP/RFP fluorescence; GFP/RFP ratio fluorescence, overnight; percent of plate control window, DMSO zero; Matrix metalloproteinase-14 (Homo sapiens), P50281; AID 651647, 2012; 360,000 compounds, 0.061% hits; GFP/RFP ratio change, % at 20 µM;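 active = GFP/RFP ratio change of at least 30% with cell ATP level not reduced by more than half and red fluorescence within 50% of control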; note: strong numbers were not always called active
#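 Assay system: HT1080 cells carrying an RFP-PRO-GFP reporter | Dosing: Single dose of 20 µM compound, 1% DMSO final | Incubation: Cells overnight before dosing, compound overnight, 37 °C, 5% CO2 | Evaluation: GFP/RFP fluorescence ratio | Control set: DMSO and RFP-L50D-GFP cell wells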
# PABP FP inh – PABP poly(A) RNA binding inhibitors, primary screen, biochemical, fluorescence polarization, uHTS | 290,000 compounds, 1% hits | AID 2014, 2009 | inhibition, % at 35 µM;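 active = 50% or more with normal probe brightness, or confirmed in later tests; about a fifth of its hits are not listed in these tables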;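 note: calls also rest on retests at 20 µM and on dose response follow-up; controls were probe without protein and protein plus probe with vehicle; some compounds called inactive have numbers as strong as hits; many hits fall short of the cut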
# Yeast UUG start – modulators of yeast start codon fidelity, primary screen, whole organism, S. cerevisiae, single point, plate reader; 350,000 compounds, 0.13% hits; activity score, % at 18.7 µM; S. cerevisiae UUG-firefly luciferase reporter, luminescence/redox ratio; AID 602363, 2012;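 active = replicate mean at a twofold rise or more, about +100% in these data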;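 note: firefly luciferase made from a UUG start codon reports start codon fidelity; reporter light over untreated wells divided by growth signal over untreated wells; some hits fall short of that in this replicate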
# CSC inhib – cancer stem cell viability inhibitors, primary screen, luminescence | cancer stem cell-like cells viability | inhibition, % at 7.5 µM | 300,000 compounds, 1.1% hits | AID 2717, 2010;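 active = mean at 75% or more and at least half the replicates too; tested in HMLE shEcad cells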;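 note: 0% = median of negative and 100% = median of positive control wells; the first replicate is given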
# eIF4H FP inh retest – also measured in eIF4H FP inh; calls as there; inhibition, %; compound at 20 µM; confirmation average;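 mean of two retest wells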
# PABP FP inh retest – second read-out of PABP FP inh, no call of its own (marks repeat the call); inhibition, %; compound at 20 µM; confirmation repeats;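 mean of two retest wells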
# MT1-MMP act inh RFP – also measured in MT1-MMP act inh; calls as there; RFP signal change, %; measured here: RFP expression control read;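 0 = vehicle wells; hits needed this value within 50% of zero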
# * hit, by the source's call; i = inactive; . = not tested or not shown; & = joins results of further samples; [ ] = dose if it differs, or a comment. Some of the compounds tested, so the mix of outcomes need not match the whole.
SMILES,eIF4H FP inh,Rce1 inh,HIV Env fusion,MT1-MMP act inh,MT1-MMP act inh RFP,PABP FP inh,Yeast UUG start,CSC inhib,others
CC(=O)Nc1ccc(Oc2ccccc2)cc1,5,i,8,18,1,2,10,6,
CC(=O)NCCCc1nc2ccccc2n1Cc1ccccc1C,-9,i,-5,2,0,-6,-12,.,
CCCn1c(SCC(=O)NCc2ccc(Cl)cc2)n[nH]c1=O,-2,i,-7,5,-2,5,-2,-12,
C[C@H](CO)N1C[C@H](C)[C@H](CN(C)S(=O)(=O)c2cccc(F)c2)Oc2ncc(-c3cccc(C(=O)N(C)C)c3)cc2C1=O,.,.,-9&-3[16.7 µM],0,6,.,-3&1&5,.,
COc1cc(CC(NC(C)=O)C(=O)NC2CCN(c3c(Cc4ccccc4)c(C)nc4ncnn34)CC2)cc(OC)c1 (stereo not drawn),3,i,12,-2,5,-7,-12,0,
O=C(Nc1oc2ccccc2c(=O)c1-c1ccc(Br)cc1)c1ccco1,.,i,-1,1,0,.,-3,8,
O=C(CCN1C(=O)C2C3C=CC(C4CC34)C2C1=O)Oc1ccccc1 (stereo not drawn),-2,i,15,-1,3,-12,.,-18,
COc1ccc(C(=O)COC(=O)[C@@H](NS(=O)(=O)c2ccccc2)C(C)C)cc1,.,.,40,-4,0,.,-7,-4,
CCn1c2c(c(=N)c3c1CCC3)CCCC2,-4,i,4,4,-15,8,-8,-10,
COc1ccc(CNCC(O)COc2ccc(C)cc2[N+](=O)[O-])cc1 (stereo not drawn),-6,i,7,3,7,1,.,5,
CCOC(=O)c1c(NC(=O)c2cccs2)sc2c1CCN(C(=O)OCC)C2,0,i,.,-3,-5,-6,8,40,
COc1ccc2c(CC(=O)NC3CCCc4ccccc43)coc2c1 (stereo not drawn),-2,i,8,-2,5,2,.,17,
Cc1cccc(-n2c(-c3csc(C(C)C)c3)n[nH]c2=S)c1,-3,i,-160,2,-2,-1,-21,.,
COc1ccc(Br)cc1/C=C/C(=O)OCC(=O)NCCc1ccc(S(N)(=O)=O)cc1,.,.,0,-3,0,.,-13,.,
COc1cc(C2NC(=O)CCC2[N+](=O)[O-])cc(Br)c1OC (stereo not drawn),-6,i,-8,2,1,-1,-6,-11,
O=C(O)c1ccccc1COc1ccccc1Cl,-1,i,.,2,-1,-6,-16,14,
CC1(CCc2ccccc2)NC(=S)N(c2ccc(Cl)cc2)N1 (stereo not drawn),-11,i,.,-2,6,-3,.,59,
CC1=C(C(=O)N(C)C)CC(CC(=O)NCc2cccc3ccccc23)C(=O)N1Cc1ccccc1 (stereo not drawn),.,.,-56,-1,0,.,-7,.,
O=C(COC(=O)c1ccc(F)cc1)Nc1cc(S(=O)(=O)N2CCOCC2)ccc1N1CCCC1,-1,i,4,1,3,-5,.,-9,
COc1ccc(CNC(=O)Cc2ccc(-c3ccccc3)cc2)cc1OC,-21,i,8,1,1,1,-9,50,
CCC1SC2=NC(C)=C(C(=O)OC)C(c3ccc(C(=O)OC)cc3)N2C1=O (stereo not drawn),-9,i,-91,0,-3,-4,1,20,
COc1ccc(/C=C/C(=O)NCc2c(C)nn(C)c2C)cc1COc1ccc(Br)cc1,-8,i,-34,-1,-8,9,-14,.,
CC(=O)NC(CCS(C)(=O)=O)C(=O)Nc1nc(C)cs1 (stereo not drawn),-1,i,-125,-1,2,-6,-18,-4,
COc1ccc(CN2CC(C(=O)NCCc3ccc(C)cc3)CC2=O)cc1 (stereo not drawn),-13,i,-42,15,5,2,2,-6,
CCOc1cc(CNCc2cccs2)ccc1OCC(=O)NC(C)(C)C,-27,i,-21,-6,-6,-4,-6,-10,
CCCCn1c(N)c(N(CCOC)C(=O)c2cc(S(=O)(=O)N3CCCCC3)ccc2C)c(=O)[nH]c1=O,.,i,-2,2,2,.,.,-3,
O=C(Nc1ccc(N2C(=O)C3C4C=CC(C4)C3C2=O)cc1)Nc1cccnc1 (stereo not drawn),15,i,.,7,0,20,-25,-11,
O=C(CSc1n[nH]c(=O)n1C1CC1)c1ccc(F)cc1,-2,i,8,2,3,4,-13,7,
O=C(O)c1ccccc1C(=O)c1ccc(Br)s1,18,i,-1,0,4,-9,-3,-13,
COc1ccc2nc(NC(=O)CC3Oc4ccccc4NC3=O)sc2c1 (stereo not drawn),-9,i,-11,0,-1,7,-7,-5,
CCN(CC(=O)Nc1ccccc1C(F)(F)F)C(=O)c1cccc(N2C(=O)CCC2=O)c1,.,i,.,-1,-2,.,-13,.,
O=S(=O)(N/N=C\c1c(F)cccc1Cl)c1ccc(Cl)cc1,-6,i,.,-1,4,15,9,1,
c1ccc(CN2OCC3Cn4c(nc5ccccc54)C32)cc1 (stereo not drawn),-3,i,-7,-4,-8,7,-20,8,
CCn1ncc(/C=N\NC(=O)COc2cc(C)cc(C)c2)c1C,6,i,.,1,1,4,-3,18,
O=C1CCC(C(=O)Nc2ccccc2N2CCCC2)=NN1,.,i,13,2,3,.,.,10,
O=C(O)CSc1nnc(CNc2ccc(F)cc2)n1-c1ccccc1,0,i,-38,-2,-2,-3,.,-8,
Cc1cccc(/C(N)=N/OC(=O)c2ccc3c(c2)OCO3)c1,2.0*,i,-60,1,-2,72*,-70,-4,eIF4H FP inh retest=108*;PABP FP inh retest=74*
COc1cc(CNCCC2CCOC(C)(C)C2)ccc1O (stereo not drawn),1,i,.,-1,10,8,-11,10,
O=C(CN1C(=O)NC(Cc2c[nH]c3ccccc23)C1=O)NC1CC1 (stereo not drawn),-6,i,8,4,4,-1,-8,-36,
CCCNC(=O)C1CCN(S(=O)(=O)c2c(C)noc2/C=C\c2ccc(OC)cc2)CC1,10,i,-4,0,-3,-6,-3,-15,
CCOCCCNC(=O)CN1CCN(S(=O)(=O)c2ccc3c(c2)CCC3)CC1,.,.,.,-4,-1,.,-1,1,
CC(=O)N1c2ccc(S(=O)(=O)NCCC(=O)NC3CCC(C)CC3)cc2CC1C (stereo not drawn),-12,i,1,-1,-2,0,10,2,
CC(=O)Nc1ccc(Nc2nccc(C)n2)cc1,.,.,-4,-1,1,.,-13,.,
Fc1cc(F)c(C2SCCN2C(=S)Nc2cccc(C(F)(F)F)c2)c(F)c1 (stereo not drawn),-5,i,32,3,-1,-2,-9,4,
O=C(NCc1cccnc1)c1cccc(OC2CCN(Cc3ccc(CO)o3)CC2)c1,14,i,-24,2,0,-4,-11,1,
COCCNC(=O)C(=O)NCC1CCCN1S(=O)(=O)c1cccs1 (stereo not drawn),.,.,-7,3,7,.,-9,.,
CC1(C)Oc2nc3ccccc3n2/C1=C\C#N,-1,i,.,9,3,9,-4,-10,
Cc1ccc(/C=C(\C#N)c2nn(-c3ccccc3)c(N)c2C#N)cc1,-13,i,-15,-3,-5,2,1,39,
Cc1cccc(CCNC(=O)CCCOc2cc(=O)n(C)c3ccccc23)c1,-1,i,-19,10,7,-7,.,-5,
O=C(NCC1COc2ccccc2O1)c1ccc(Br)s1 (stereo not drawn),1,i,-29,-1,0,-1,5,0,

# (continued)
SMILES,eIF4H FP inh,Rce1 inh,HIV Env fusion,MT1-MMP act inh,MT1-MMP act inh RFP,PABP FP inh,Yeast UUG start,CSC inhib,others
COc1ccc(S(=O)(=O)N2N=C(C)Oc3ccccc3C2=O)cc1,-4,i,18,-1,-6,0,-1,54,
O=C(c1ccccc1)N1CCn2c(nc3ccccc32)C1,-4,i,-43,1,2,-5,-5,-8,
CCOc1ccc(-n2c(SCC(=O)Nc3ccc(OC)cc3OC)nc3c(c2=O)SCC3)cc1,-1,.,-152,-7,-1,4,-4,34,
COc1cc(/C=N/N=C(\N)c2nonc2N)ccc1O,-5,i,-47,4,1,8,.,-21,
Cc1ccc(-c2nnn(CC(=O)N(Cc3ccco3)C(C(=O)NC(C)(C)C)c3cccs3)n2)o1 (stereo not drawn),11,i,-12,-7,3,1,3,.,
C[C@@H]1C(c2ccc(F)cc2)=NN(c2ccccc2)[C@H]1C(=O)N1CCOC1=O,.,.,-168,4,6,.,-2,.,
CCCSc1nc(C)cc(C)c1S(C)(=O)=O,4.7*,i,0,0,4,78*,.,-2,eIF4H FP inh retest=96*;PABP FP inh retest=100*
Cn1c(CNc2nc(-c3ccccc3)cs2)nnc1SCC(=O)N1CCc2ccccc21,-4,i,.,-4,-8,-1,-16,0,
CCCn1c(SCC(=O)Nc2ccccc2C(=O)OC)nc2c1c(=O)n(C)c(=O)n2C,-12,i,-12,5,-2,-1,-12,-2,
O=C(COc1cccc2ccccc12)Nc1cc(S(=O)(=O)N2CCOCC2)ccc1N1CCOCC1,1,i,.,.,.,-1,.,2,

# Three compounds out of the list, ordered by number of heavy atoms, smallest number first.
SMILES,eIF4H FP inh,Rce1 inh,HIV Env fusion,MT1-MMP act inh,MT1-MMP act inh RFP,PABP FP inh,Yeast UUG start,CSC inhib,others
CC(=O)NCCCc1nc2ccccc2n1Cc1ccccc1C,-9,i,-5,2,0,-6,-12,.,
COc1ccc(CNCC(O)COc2ccc(C)cc2[N+](=O)[O-])cc1 (stereo not drawn),-6,i,7,3,7,1,.,5,
O=C(Nc1ccc(N2C(=O)C3C4C=CC(C4)C3C2=O)cc1)Nc1cccnc1 (stereo not drawn),15,i,.,7,0,20,-25,-11,

# (next part)
SMILES,eIF4H FP inh,Rce1 inh,HIV Env fusion,MT1-MMP act inh,MT1-MMP act inh RFP,PABP FP inh,Yeast UUG start,CSC inhib,others
CSc1ccc(CN(C)CC(=O)NC(C)c2ccccc2)cc1 (stereo not drawn),-5,i,-17,-2,-4,8,-13,2,
CCOCCCn1c(=NC(=O)c2cccs2)c(C#N)cc2c(=O)n3ccccc3nc21,27,i,-9,7,9,41,-3,-5,
COc1cc(/C=C/C(=O)OCC(=O)Nc2cc(C)on2)ccc1OCC#N,.,.,0,-3,-3,.,-11,.,
Cc1csc(NC(=O)C2CCCCN2S(=O)(=O)c2ccccc2)n1 (stereo not drawn),1,i,-10,-3,-1,11,.,-2,
COc1ccc(S(=O)(=O)/C(C#N)=C/Nc2ccccc2F)cc1,-3,i,-7,0,-2,-4,.,-3,
COc1ccc(CCN(C)C(=O)c2ccc(C)c(S(=O)(=O)N3CCCCC3)c2)cc1OC,.,.,1,2,-5,.,-7,-7,
O=C(COc1ccccc1-c1ccccc1)Nc1ccc(S(=O)(=O)NCc2ccco2)cc1,-5,i,-67,-4,-10,-11,-8,-10,
CCOC(=O)Nc1cc(C)c(Cl)cc1OC,-14,i,.,-1,0,8,-14,-12,
CCCCCC(=O)OC(CN1CCCCC1)CN1CCCC1=O (stereo not drawn),-8,i,.,2,5,-2,-15,-12,
CCOc1ccc(N(C)S(=O)(=O)c2ccc(-c3cc(C)no3)s2)cc1,-5,i,2,-4,-13,7,-15,62,
CC1=CCC2C(=O)N(c3ccccc3OC(=O)c3ccccc3F)C(=O)C2C1 (stereo not drawn),-2,i,3,3,5,-6,-2,-15,
NC(=O)C1CC(=O)N(c2ccc(OCc3ccccc3Cl)cc2)C1 (stereo not drawn),-4,i,15,-3,2,3,.,.,
CN(C)Cc1c(O)ccc2oc(Cc3ccccc3)cc12,4,i,.,4,2,35,-11,15,
